MbtI inh = blocks the Mycobacterium tuberculosis siderophore enzyme MbtI; 0.89% of 100,000 active; AID 493033; inhibition, %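 (about 17 µg/mL by stock and volumes)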; purified MbtI enzyme, fluorescence intensity read-out; P9WFX0;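 active = above 50% in both replicates, above 80% if mildly self-fluorescent; inactive = the rest, strongly fluorescent compounds included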;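 note: 0% = mean of negative and 100% = mean of positive controls; one replicate is shown; some compounds called inactive have numbers as strong as hits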
Target sequence (P9WFX0 whole entry, looked up): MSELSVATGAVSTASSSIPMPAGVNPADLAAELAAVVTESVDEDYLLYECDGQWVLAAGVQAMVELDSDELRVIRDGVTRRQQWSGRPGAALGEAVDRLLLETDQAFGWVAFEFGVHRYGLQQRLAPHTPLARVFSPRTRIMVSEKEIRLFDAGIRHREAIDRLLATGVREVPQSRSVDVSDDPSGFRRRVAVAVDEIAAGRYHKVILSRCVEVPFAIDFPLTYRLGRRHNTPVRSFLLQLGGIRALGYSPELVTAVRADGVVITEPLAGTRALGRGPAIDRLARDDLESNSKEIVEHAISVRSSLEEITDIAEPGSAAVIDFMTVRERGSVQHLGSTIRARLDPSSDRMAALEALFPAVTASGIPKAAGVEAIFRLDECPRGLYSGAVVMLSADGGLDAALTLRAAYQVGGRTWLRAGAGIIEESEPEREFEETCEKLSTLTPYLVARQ
Polio RdRp inh = poliovirus RNA polymerase inhibition; P03300; poliovirus polymerase elongation, fluorescence polarization; hits give low values; % elongation, % (compound at 16.7 µg/mL); 0.66% of 150,000 active; AID 588519; in the data active = % elongation below about 90%; note: some results filed as inactive read as strong as hits
MenB inh = blocks the Mycobacterium tuberculosis MenB enzyme; P9WNP5; MenB enzyme assay, absorbance read-out; some hits fall short of the stated cut; inhibition, %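 (about 12 µg/mL by stock and volumes)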; 0.43% of 100,000 active; AID 540299;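 active = mean of two replicates above 30%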;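 note: 0% = no compound and 100% = wells with inactive enzyme; the first replicate is given; strong numbers were not always called active; inactives centre near -10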
Target sequence (P9WNP5 whole entry, looked up): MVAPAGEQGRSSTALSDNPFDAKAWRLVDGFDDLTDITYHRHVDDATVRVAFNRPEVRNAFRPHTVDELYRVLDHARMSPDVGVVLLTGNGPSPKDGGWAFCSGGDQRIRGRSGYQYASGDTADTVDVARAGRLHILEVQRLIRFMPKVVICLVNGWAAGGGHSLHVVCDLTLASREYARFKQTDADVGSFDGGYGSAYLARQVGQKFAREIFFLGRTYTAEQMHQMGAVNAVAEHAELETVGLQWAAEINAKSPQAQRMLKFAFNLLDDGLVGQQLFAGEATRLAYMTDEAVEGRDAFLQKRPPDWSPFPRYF
Polio RdRp inh intensity = recorded beside Polio RdRp inh, whose call it bears; % elongation; measured here: total intensity read-out; formula for this scale not given here;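 total fluorescence in place of polarization; lower means less elongation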
An asterisk follows results filed as active; x = not tested or not shown; & = joins results of further samples.

entry	molecule	MbtI inh	Polio RdRp inh
1	CC1(NC(=S)Nc2ccc(O)cc2)CCS(=O)(=O)C1 (configuration not stated)	1	98
2	CCc1ccc(S(=O)(=O)c2cn(CC)c3ccccc3c2=O)cc1	4	101
3	COc1ccc(-c2nnc3c4ccccc4c(C)nn23)cc1S(=O)(=O)NC(C)(C)C	15	102
4	C=CCn1c(C)csc1=Nc1ccc(C(=O)OCC)cc1	-3	103
5	COc1ccc(CCNC(=O)C2(C)CCC(=O)N2CCC(C)C)cc1OC (configuration not stated)	-12	103
6	CCOC(=O)CN1C(=O)S/C(=C\c2ccccc2OCc2ccccc2F)C1=O	x	104
7	Cc1ccc(NC(=O)c2cc(C)oc2C)c(Br)c1	-10	101
8	COCCn1c(SCC(=O)c2ccc3c(c2)OCCO3)nc2ccccc2c1=O	7	98
9	CC(C)/C(N)=N/OC(=O)c1ccc(I)cc1	-3	103
10	C#CCCN1CCN(C(=O)Nc2ccc(F)cc2)CC1	-7	102
11	CCOC(=S)SCc1ccc(C(=O)Oc2ccc(F)cc2F)cc1	-11	106
12	CCCCCCCCCCCCCC(=O)O[C@@H]1[C@@H](C)[C@@]2(O)[C@@H](C=C(CO)C[C@]3(O)C(=O)C(C)=C[C@@H]23)[C@@H]2C(C)(C)[C@]12OC(C)=O	6	98&100
13	NCCCNc1ccc(C(F)(F)F)cn1	-16	102
14	CSCC(CSC)OC(=O)c1c(-c2c(Cl)cccc2Cl)noc1C	-16	104
15	Cc1ccc(NC(=O)C(CC(C)C)NS(=O)(=O)c2ccc3c(c2)CCCC(=O)N3)cc1 (configuration not stated)	-28	102

entry	Polio RdRp inh intensity	MenB inh
1	103	-26
2	98	-9
3	100	-8
4	109	-13
5	106	-17
6	110	-22
7	109	-11
8	103	0
9	103	-2
10	101	-5
11	108	-7
12	102&101	0
13	103	-23
14	106	-3
15	103	-19

More entries follow.
entry	molecule	MbtI inh	Polio RdRp inh
16	CCCNC(=O)Cn1c(=O)oc2cc(S(=O)(=O)N3CCCC3)ccc21	-7	103
17	O=C1c2cccnc2C(=O)N1Cc1ccc(F)cc1S(=O)(=O)N1CCCC1	-9	105
18	S=C(Nc1ccccc1)N1CCn2cccc2C1c1cccnc1 (configuration not stated)	10	99
19	COc1cc(CN(C(=O)/C(=C/c2cccnc2)NC(=O)c2ccccc2)C2CCCCC2)ccc1O	-1	103
20	CS(=O)(=O)c1cccc(C(=O)Nc2ccnn2C2CCCC2)c1	-5	103
21	CCN(CC(=O)NCc1ccc(Cl)cc1)CN1C(=O)C2CC=CCC2C1=O (configuration not stated)	-11	105
22	N=C1SCC(=O)N1c1nc(-c2ccccc2)cs1	0	100
23	CCOc1ccc(OCC)c(NC(=O)C(NS(=O)(=O)c2cccs2)C(C)C)c1 (configuration not stated)	-5	103
24	COC(=O)CNC(=O)c1nn(-c2ccc(OC)cc2OC)c(=O)c2ccccc12	-5	103
25	CN(Cc1ccccc1)C(=O)CN1CCCC1=O	-6	101
26	O=C1c2ccccc2-c2nn(C(=O)C3CCCCC3)c3cccc1c23	-6	102
27	CC1=CC(C)C2COC(c3ccccc3OCc3ccccc3)C1C2C (configuration not stated)	x	104
28	CCCNC(=O)c1ccccc1NC(=O)c1ccco1	x	102
29	COc1ccc(CN=Cc2c(O)[nH]c3ccccc23)cc1OC	-6	101
30	O=C(Cn1nnc(-c2cc(C(F)(F)F)cc(C(F)(F)F)c2)n1)c1ccc(Cl)cc1	-8	107

entry	Polio RdRp inh intensity	MenB inh
16	106	-18
17	103	-24
18	102	-17
19	105	10
20	101	-11
21	107	-7
22	103	-25
23	98	4
24	101	-12
25	100	-3
26	106	7
27	101	-8
28	106	-6
29	103	-1
30	110	-3

Later entries
entry	molecule	MbtI inh	Polio RdRp inh
31	CC(C)N(Cc1ccccc1)C(=O)COc1ncnc2c1cnn2-c1ccccc1	0	100
32	N#Cc1ccc(C2SCCCS2)cc1	-10	105
33	COc1ccc(S(=O)(=O)N(Cc2cc3cc4c(cc3n3nnnc23)OCO4)C2CCCCC2)cc1	-4	103
34	Cc1ccc(-n2ncc3c(NCc4ccc5c(c4)OCO5)ncnc32)cc1	-12	102
35	O=C(On1c(-c2ccccc2)cc2ccccc21)c1ccco1	-30	100
36	CON(C)S(=O)(=O)c1cccc(C(=O)Oc2ccc(-c3nnco3)cc2)c1	-7	96
37	O=C(Cc1cccs1)N(c1ccccc1)C1C=CS(=O)(=O)C1 (configuration not stated)	-12	101
38	COc1ccc(/C=C/C(=O)OCC(=O)Nc2ccccc2Cl)cc1	-4	100
39	O=C1/C(=C\c2ccsc2)CC/C1=C/c1ccsc1	-2	101
40	O=C(CN1CSCC1=O)Nc1ccc(I)cc1	-24	101
41	COc1cc(C2C3=C(CCCC3=O)Nc3[nH]c(=O)[nH]c(=O)c32)cc(OC)c1OC (configuration not stated)	2	104
42	CC(=O)Oc1ccccc1C(=O)Oc1ccc(/C=N\n2cnnc2)cc1	-53	100
43	COc1ccc(C(=O)CSc2nsc(SCC(=O)c3ccc(OC)cc3)c2C#N)cc1	x	106
44	CCOC(=O)c1c(CN2CCOCC2)n(C)c2cc(Br)c(OC(C)=O)cc12	-3	101
45	CC(C)NC(=O)c1cc(-c2ccc(Cl)cc2)on1	-10	101

entry	Polio RdRp inh intensity	MenB inh
31	94	1
32	108	-2
33	103	-23
34	98	-29
35	105	x
36	100	-35
37	97	-11
38	104	x
39	107	-17
40	96	19
41	96	-24
42	101	3
43	108	-1
44	101	10
45	107	-30

Two entries from above, reformatted.
[35] O=C(On1c(-c2ccccc2)cc2ccccc21)c1ccco1
[36] CON(C)S(=O)(=O)c1cccc(C(=O)Oc2ccc(-c3nnco3)cc2)c1

| Screen / compound no. | 35 | 36 |
| --- | --- | --- |
| MbtI inh | -30 | -7 |
| Polio RdRp inh | 100 | 96 |
| Polio RdRp inh intensity | 105 | 100 |
| MenB inh | x | -35 |

(list continues)
entry	molecule	MbtI inh	Polio RdRp inh
46	O=C(COc1ccc2oc3c(c2c1)CCCC3)OCc1ccccn1	-3	110
47	COc1ccc(NC(=O)CSc2nccn2-c2ccccc2)cc1	5	102
48	c1ccc(CNCc2ccccn2)cc1	3	104
49	c1cc(OCc2nc3ccccc3s2)cc(-n2cnnn2)c1	4	99
50	CCOC(=O)C1=C(c2ccccc2)NC(=S)NC1CC (configuration not stated)	15	104
51	N#CCOC(=O)/C=C/c1ccc2c(c1)OCO2	-35	101
52	CC(=O)NS(=O)(=O)c1ccc(-c2ccc(/C=C3/C(=O)NN(c4cccc(Cl)c4)C3=O)o2)cc1	22	103
53	S=C(NCCCN1CCOCC1)N1CCN(c2ccccc2)CC1	-16	103
54	O=C(NCc1ccco1)NNc1nc2c(-c3ccccc3)nnn2c2ccccc12	4	101
55	CN1/C(=C2\C=NN(C)P2(=S)N2CCCC2)C(C)(C)c2ccccc21 (configuration not stated)	6	109
56	CC(CCc1ccccc1)NC(=O)c1cccs1 (configuration not stated)	-16	103
57	COC(=O)C1=CN(C)C=C(C(=O)OC)C1c1cccs1	121	101
58	O=C(Cn1nc(-c2ccccc2)c2c(c1=O)CCCC2)Nc1ccccc1	-3	101
59	O=C1c2ccc(-c3nc4ccccc4c(=O)o3)cc2C(=O)N1CC1CCCO1 (configuration not stated)	x	106
60	N#Cc1c(N)n(CCc2ccccc2)c2nc3ccccc3nc12	-470	102

entry	Polio RdRp inh intensity	MenB inh
46	106	-14
47	94	-11
48	106	10
49	96	-6
50	104	-41
51	108	-14
52	104	-149
53	104	-23
54	105	8
55	110	-19
56	103	-25
57	102	-51
58	100	-7
59	98	-16
60	103	x

(further entries)
entry	molecule	MbtI inh	Polio RdRp inh
61	CCS(=O)(=O)Nc1cc(OC)c(OC)c(OC)c1	0	103
62	COc1ccccc1CC(=O)NCc1ccc(-c2cccs2)cc1	-2	105
63	CC(C)CCNC(=O)c1cn(CC(C)C)c(=O)c2c1c1ccccc1n2C	-8	100
64	O=C(OCC(=O)N1CCCC1=O)c1ccc(-c2ccc(O)cc2)cc1	55	102
65	COc1ccccc1-n1cc(C(=O)NCC(=O)NCC2COc3ccccc3O2)c2ccccc2c1=O (configuration not stated)	-10	102
66	CCOC(=O)c1c(-c2ccc(C)o2)csc1NC(=S)NC(=O)N(C)C	85*	99
67	Cn1c(N)c(C#N)c2c(c1=S)CCCC2	24	88*
68	CCc1ccc(NC(=O)Cn2cc3c(n2)CCCC3)cc1	-6	104
69	CNC(=O)NC(=O)CSc1nnc(SCC(=O)NC(=O)NC)s1	-8	109
70	CCn1c(CS(=O)(=O)c2cc(C)ccc2C)nc2cc(C(=O)O)ccc21	-11	81*
71	CCOC(=O)C(CC)Sc1ccc2nnc(CCNC(=O)c3ccc(F)cc3)n2n1 (configuration not stated)	-1	102
72	CSc1cccc(NC(=O)COCc2cc(-c3ccc4c(c3)OCO4)on2)c1	103	101
73	CCN=C1S/C(=C/c2ccc(-c3ccc(F)cc3)o2)C(=O)N1CC	x	107
74	COC(=O)CSc1nc2ccc(C(C)C)cc2cc1C#N	21	100
75	O=C(O)CCc1nc2ccc(C(=O)O)cc2[nH]1	36	100

entry	Polio RdRp inh intensity	MenB inh
61	104	10
62	114	-14
63	95	-24
64	100	-10
65	105	2
66	100	-65
67	104*	-45
68	107	-1
69	109	-8
70	93*	1
71	110	-27
72	103	-5
73	111	-7
74	103	0
75	100	3

Next results:
entry	molecule	MbtI inh	Polio RdRp inh
76	CCN(CC)C(=O)CSc1ncnc2c1nnn2Cc1ccc(F)cc1	8	103
77	O=C1c2ccccc2S(=O)(=O)NN1CN1C(=O)c2ccccc2C1=O	8	x
78	COc1cc(CNC2C3CC4CC(C3)CC2C4)ccc1OCc1cccs1 (configuration not stated)	15	102
79	CC(CC(=O)OCc1ccccc1)n1ccnc1 (configuration not stated)	-5	106
80	Cc1ccc(S(=O)(=O)N2C(=O)CCC2c2nc(-c3cccnc3)no2)cc1 (configuration not stated)	-7	101
81	CC(C)(C)c1ccc(S(=O)c2sc3nc4c(cc3c2N)CCCC4)cc1 (configuration not stated)	-12	103
82	CCn1c2ccccc2c2nnc(SCC(=O)NC3CCCC3)nc21	3	103
83	c1csc(CNc2ncnc3sccc23)c1	-1	108
84	CN1c2ccccc2Sc2cc(N)ccc21	14	101
85	O=C(O)c1cc([N+](=O)[O-])ccc1NCCCc1ccccc1	7	100
86	O=C(CN1C(=O)CC2(CCCC2)C1=O)NC1CCS(=O)(=O)C1 (configuration not stated)	-12	103
87	COc1ccc(NC(=O)NC(C)C2CC3CCC2C3)cc1 (configuration not stated)	-11	102
88	Ic1cccc(-c2nc(-c3ccccc3)no2)c1	-10	101
89	CC/C(Cc1ccccc1)=N\NC(=O)c1cc(C)oc1C	-7	105
90	O=c1[nH]nc(-c2cccs2)o1	107	104

entry	Polio RdRp inh intensity	MenB inh
76	99	-2
77	x	11
78	98	-6
79	107	-26
80	103	-10
81	100	-11
82	105	9
83	107	2
84	101	3
85	103	x
86	99	-11
87	101	-1
88	103	-14
89	102	-25
90	105	-25

Remaining list, next part:
entry	molecule	MbtI inh	Polio RdRp inh
91	O=S(=O)(c1cccc(CSc2nc3ccccc3s2)c1)N1CCOCC1	-7	108
92	Cc1nc2ccccc2n1CC(O)c1ccccc1 (configuration not stated)	2	108
93	COc1ccc(C(=O)NCCN=C2NS(=O)(=O)c3ccccc32)cc1	-12	101
94	Oc1ccc(Br)cc1/C=N/n1cnnc1	x	101

entry	Polio RdRp inh intensity	MenB inh
91	104	-21
92	103	4
93	102	-46
94	110	-47

Compounds shown so far that contain a thiophene ring, fused or not (eleven):
entry	molecule	MbtI inh	Polio RdRp inh
23	CCOc1ccc(OCC)c(NC(=O)C(NS(=O)(=O)c2cccs2)C(C)C)c1 (configuration not stated)	-5	103
37	O=C(Cc1cccs1)N(c1ccccc1)C1C=CS(=O)(=O)C1 (configuration not stated)	-12	101
39	O=C1/C(=C\c2ccsc2)CC/C1=C/c1ccsc1	-2	101
56	CC(CCc1ccccc1)NC(=O)c1cccs1 (configuration not stated)	-16	103
57	COC(=O)C1=CN(C)C=C(C(=O)OC)C1c1cccs1	121	101
62	COc1ccccc1CC(=O)NCc1ccc(-c2cccs2)cc1	-2	105
66	CCOC(=O)c1c(-c2ccc(C)o2)csc1NC(=S)NC(=O)N(C)C	85*	99
78	COc1cc(CNC2C3CC4CC(C3)CC2C4)ccc1OCc1cccs1 (configuration not stated)	15	102
81	CC(C)(C)c1ccc(S(=O)c2sc3nc4c(cc3c2N)CCCC4)cc1 (configuration not stated)	-12	103
83	c1csc(CNc2ncnc3sccc23)c1	-1	108
90	O=c1[nH]nc(-c2cccs2)o1	107	104

entry	Polio RdRp inh intensity	MenB inh
23	98	4
37	97	-11
39	107	-17
56	103	-25
57	102	-51
62	114	-14
66	100	-65
78	98	-6
81	100	-11
83	107	2
90	105	-25

Screening data: PubChem, ICCB-Longwood Screening Facility, Harvard Medical School
